Source: PubChem BioAssay (National Center for Advancing Translational Sciences (NCATS))
2A StopGo: FMDV 2A StopGo reporter, luciferase signal | human cells with a luciferase reporter of 2A StopGo recoding; control for the full effect not named in the record | Potency, µM (top dose mostly 57.9 µM), for inactives: top-dose signal change, negative = less light | 1.2% of 410,000 active; active = well fitted falling curve with a large enough effect; inconclusive = small, poorly fitted or top-dose-only effect; inactive = no such curve, though single readings can be large or run the other way; tested in HEK293T cells; also: % is scaled to controls: 0 for no effect and ±100 for the full control effect; nearly all actives have a fitted effect of over 45% in size; luciferase light after 4 h
SARS PLpro yeast: blocks SARS-CoV papain-like protease in a yeast assay; S. cerevisiae expressing SARS-CoV PLpro, growth rescue; control for the full effect not named in the record; Potency, µM (series often up to 32.9 µM), inactives show at the highest dose activity, positive = growth rescue; 0.19% of 330,000 active; AID 485353; active means well fitted rising curve with a large enough effect; inconclusive means small, poorly fitted or top-dose-only effect; inactive means no such curve, though single readings can be large or run the other way; also: 0% is about no effect; nearly all actives have a fitted effect of over 55% in size; growth read by luminescence after 48 h
RE007 growth inh: less growth of the S. pombe RE007 Vpr strain. 0.21% of 360,000 active. Potency, µM (highest dose often 92.2 µM), inactives show top-dose activity change, negative = less growth. S. pombe RE007 Vpr strain, BacTiter-Glo ATP luminescence, 24 h; control for the full effect not named in the record; active = well fitted falling curve with a large enough effect; inconclusive = small, poorly fitted or top-dose-only effect; inactive = no such curve, though single readings can be large or run the other way;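 also: % is scaled to controls: 0 for no effect and ±100 for the full control effect; nearly all actives have a fitted effect of over 50% in size; the assay follows cell death caused by Vpr and the record does not say whether a fall means rescue or toxicity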
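Fission yeast strain RE007, carrying one chromosomally integrated HIV-1 vpr copy, was seeded at OD 0.01 in PMG+AL medium with 23 nL pinned compound. After 24 h at 30 °C and 99% humidity, viability was read by BacTiter-Glo luminescence.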
The depositor's hits bear a star; ? = inconclusive; [ ] = dose if it differs, or a comment. Potency is read from the fitted curve at half-maximal effect. An excerpt (hit frequency here may not be typical).

Results follow in this order: SARS PLpro yeast, RE007 growth inh, 2A StopGo
- COc1cc(O)sc1C=Nc1ccc(Cl)cc1
  -10%, -3%, 46%[activator]
- O=C(NC1CC1)c1cccc2c1C(=O)c1ccc(N3CCC(Cc4ccccc4)CC3)cc1S2(=O)=O
  8%, 13%, ?
- CCN(CC)CCNC(=O)/C(=C/c1cn(CC)c2ccccc12)NC(=O)c1cc(OC)c(OC)c(OC)c1
  1%, 1%, -11%
- O=C1CN(C(=O)COC(=O)c2cccs2)c2ccccc2N1
  -3%, 17%, -2%
- CCCCC[C@@H]1C=C(C(=O)O)[C@H](c2cccc(C)c2)N1S(=O)(=O)c1ccc(C)cc1
  -2%, 1%, -1%
- O=C(COC(=O)/C=C/c1cccc(Cl)c1)NC1CC1
  7%, -2%, -13%
- CC(NC(=O)c1ccc(-c2ccccc2)cc1)C(c1ccccc1)N1CCOCC1 (stereo not drawn)
  -1%, -19%, -21%
- CC1CCC(NC(=O)c2cc(Cl)nc3ccccc23)CC1 (stereo not drawn)
  -11%, 4%, 38%[activator]
- COc1ccc(-c2sc3ccc(OC)cc3c2-c2ccc(OCCN3CCOCC3)cc2)cc1
  -41%, -28%, -13%
- CCOc1ccc(C(=O)OCC(=O)NC2CCCCCCC2)cc1
  4%, -3%, -23%
- CC(C)(C)OC(=O)C[C@@H]1C/C=C\C[C@H](CC(=O)N[C@@H](CO)Cc2ccccc2)C(=O)N[C@H](Cc2ccccc2)COC1=O
  7%, 9%, 3%
- O=C(O)CC1c2ccccc2C=Cc2ccccc21
  0%, 0%, 0%
- CCOc1ccc(OCCC(=O)OCC(=O)Nc2cc(OCC)c(N3CCOCC3)cc2OCC)cc1
  2%, -3%, 4%
- COc1cccc(CN(C)C(=O)CCN=C2NS(=O)(=O)c3ccccc32)c1OC
  -1%, -1%, 26%
- COc1cccc(C(=O)OCC(=O)c2c[nH]c3ccccc23)c1OC
  -6%, -4%, 11%
- CCOP(=O)(OCC)c1nc(-c2cccc3ccccc23)oc1N1CCCCC1
  -2%, 26%, -26%
- CCOc1cc(C(=O)N(CC)CC(=O)Nc2ccc3c(c2)OCCO3)ccc1OC
  5%, 7%, 5%
- C=CC[C@H](CC(=O)N(CCO)Cc1ccccc1)C(=O)N[C@H](COC(=O)[C@H](CC=C)CC(=O)OC(C)(C)C)Cc1c[nH]c2ccccc12
  2%, 6%, ?
- CCC/C(C#Cc1cc(OC)cc(OC)c1)=C1/c2ccccc2C(=O)N1c1ccccc1
  -2%, -25%, -22%
- CC(C)[C@H](NC(=O)c1ccccc1)C(=O)OCC(=O)c1c(N)n(C)c(=O)n(C)c1=O
  3%, -7%, -16%
- COC(=O)C1=C(c2ccc(C(C)=O)cc2)C[C@@H]2CC[C@H]1N2C(=O)NC(C)C
  -14%, -1%, -12%
- CC(C)C[C@H]1CN=C(Nc2ccccc2)N1CC1CCCCCC1
  4%, -11%, -23%
- COc1ccc(CCCC(=O)N/N=C/c2ccccc2OC)cc1
  -4%, 3%, 2%
- CC1CCCN(C(=O)CSc2nnc3ccccn23)C1 (stereo not drawn)
  11%, 7%, 30%[activator]
- COCCCn1c(SCCc2ccccc2)nc2cc(OC)c(OC)cc2c1=N
  -7%, -9%, ?
- CCCN(C(=O)c1cccs1)c1c(N)n(Cc2ccccc2)c(=O)[nH]c1=O
  -4%, 7%, -3%
- C[C@H](CO)N1C[C@H](C)[C@@H](CN(C)C(=O)Nc2ccc(C(F)(F)F)cc2)Oc2c(NC(=O)CCC(F)(F)F)cccc2C1=O
  0%, 0%, 28%
- COc1cc(CC(=O)OCC(=O)NCc2ccc(C)cc2)cc(OC)c1OC
  -2%, -4%, -13%
- CCc1nc(NC(=O)NS(=O)(=O)c2ccccc2C(=O)OC)nc(OC)n1
  8%, -4%, -14%
- CC(Sc1nnc(-c2ccccc2F)n1C)C(=O)NC1CCCCC1 (stereo not drawn)
  -12%, -3%, -15%
- CN(C)C(=O)c1ccc(-c2cc3onc(-c4ccccc4)c3c(=O)n2C)cc1
  11%, 10%, -11%
- Cc1ccc(-c2nc3ccc([N+](=O)[O-])cc3[nH]2)cc1
  -6%, -18%, -45%
- C[C@@H]1CN([C@H](C)CO)C(=O)c2cc(NC(=O)Nc3ccc(C(F)(F)F)cc3)ccc2O[C@H]1CN(C)S(=O)(=O)c1cccs1
  -3%, 3%, -21%
- O=C(/C=C/c1ccco1)NCC(=O)N/N=C/c1ccc(Cl)cc1
  0%, 7%, -16%
- CN(C)c1ccc(NC(=O)CCn2c(=S)oc3ccccc32)cc1
  1%, -7%, 58%[activator]
- C/C(=N\NC(=O)c1c[nH]c2ccccc12)c1ccc2c(c1)OCO2
  0%, -14%, 35%[activator]
- CC(C)(C)OC(=O)C[C@@H]1C/C=C\C[C@H](CC(=O)NCCO)C(=O)N[C@@H](Cc2ccccc2)COC1=O
  1%, 8%, -2%
- O=C(COc1cccc(F)c1)NNC(=O)Cc1ccc(Br)cc1
  8%, -1%, -7%
- O=C(Nc1ccc(N2CCCCC2)cc1)C1CCCN1S(=O)(=O)c1ccc(F)cc1 (stereo not drawn)
  -11%, 2%, -12%
- COc1ccc(CC(=O)N2N=C(c3ccncc3)CC2(O)C(F)(F)F)cc1 (stereo not drawn)
  -8%, 6%, -15%

Single entries from above.
Result for `O=C(Nc1ccc(N2CCCCC2)cc1)C1CCCN1S(=O)(=O)c1ccc(F)cc1` (stereo not drawn) under SARS PLpro yeast: -11%
Result for `C/C(=N\NC(=O)c1c[nH]c2ccccc12)c1ccc2c(c1)OCO2` under SARS PLpro yeast: 0%
Result for `C[C@@H]1CN([C@H](C)CO)C(=O)c2cc(NC(=O)Nc3ccc(C(F)(F)F)cc3)ccc2O[C@H]1CN(C)S(=O)(=O)c1cccs1` under RE007 growth inh: 3%

The list goes on:
Results follow in this order: SARS PLpro yeast, RE007 growth inh, 2A StopGo
- O=C(NCCc1ccc(OC(F)F)cc1)C1CC(=O)N(c2ccc3c(c2)OCCO3)C1 (stereo not drawn)
  9%, 5%, -5%
- CCCn1c(SCC(=O)Nc2cc(S(=O)(=O)N(C)C)ccc2OC)n[nH]c1=O
  -1%, 9%, -9%
- COc1cc(OC)cc(-c2c(C#Cc3ccsc3)c3cc(-c4ccc(OC)cc4F)ccc3n2C)c1
  3%, 18%, 0%
- CCOc1ccccc1OCCC(=O)OCC(=O)c1ccc[nH]1
  -1%, 0%, -1%
- N#Cc1c(-c2ccccc2)nc(SCC(=O)NC2CCCCC2)[nH]c1=O
  -1%, 3%, 4%
- O=C(C[C@@H]1C/C=C/CC[C@@H](Cc2ccc(F)cc2)C(=O)OC[C@H](Cc2ccccc2)NC1=O)N[C@H](CO)Cc1ccccc1
  -6%, -5%, -25%
- C/C=C(/C)C(=O)O[C@@H]([C@H](O)c1cc2ccc(=O)oc2cc1OC)C(C)(C)O[C@@H]1O[C@H](CO)[C@@H](O)[C@H](O)[C@H]1O
  -11%, 45%, -18%
- Nc1ncnc2c1ncn2[C@@H]1O[C@H](COS(=O)(=O)O)[C@@H](O)[C@H]1O
  4%, ?, -18%
- COc1ccccc1N1CC(C(=O)NCCC2=CCCCC2)CC1=O (stereo not drawn)
  -1%, -11%, -3%
- CC1CCCN(C(=O)C2CCN(C(=O)Nc3ccccc3)CC2)C1 (stereo not drawn)
  1%, -2%, -22%
- CCC(C)NS(=O)(=O)c1ccc(F)c(C(=O)Nc2c(F)cc(F)cc2Br)c1 (stereo not drawn)
  0%, 1%, 22%
- OCC[C@H]1C[C@H](O)[C@@H](O)[C@@]2(Cc3ccccc3CO2)O1
  -2%, -1%, -14%
- Cc1cc(C(=O)Nc2ccc(Br)cn2)sc1C
  -6%, ?, 16%
- CC1CCC2(CC1)NC(=O)N(CC(=O)Nc1cccc(S(=O)(=O)N3CCCCC3)c1)C2=O (stereo not drawn)
  7%, -3%, -25%
- COc1ccc(S(=O)(=O)N2CCN(C(=O)c3cc4c(s3)CCCC4)CC2)cc1
  -5%, 9%, ?
- CCOC(=O)C1=CC[C@@H](c2cc3cc(OC)ccc3n2C)N(S(=O)(=O)c2ccc(C)cc2)[C@H]1C(=O)OCC
  -8%, -2%, -4%
- O=C(NN1S(=O)(=O)c2ccccc2S1(=O)=O)c1ccc(Br)cc1
  -2%, 3%, -11%
- O=C(NCc1nnc(SCC(=O)N2CCc3ccccc32)o1)c1ccco1
  0%, -1%, -26%
- COc1cccc(NC(=O)CN(C)C(=O)Cc2n[nH]c(=O)c3ccccc23)c1
  -6%, 13%, -13%
- CC(=O)O[C@H](COc1c2ccoc2cc2oc(=O)ccc12)C(C)(C)O
  1%, 22%, 12%

Three structures already listed, sorted by number of heavy atoms, low to high.
Results follow in this order: SARS PLpro yeast, RE007 growth inh, 2A StopGo
- O=C(NN1S(=O)(=O)c2ccccc2S1(=O)=O)c1ccc(Br)cc1
  -2%, 3%, -11%
- COc1cccc(NC(=O)CN(C)C(=O)Cc2n[nH]c(=O)c3ccccc23)c1
  -6%, 13%, -13%
- CCOC(=O)C1=CC[C@@H](c2cc3cc(OC)ccc3n2C)N(S(=O)(=O)c2ccc(C)cc2)[C@H]1C(=O)OCC
  -8%, -2%, -4%

(listing goes on)
Results follow in this order: SARS PLpro yeast, RE007 growth inh, 2A StopGo
- O=C(Nc1ccc([N+](=O)[O-])cc1)Nc1ccc(N2CCOCC2)c2nonc12
  4%, 3%, ?
- CN(CC1COc2ccccc2O1)C(=O)CSc1ncnc2sccc12 (stereo not drawn)
  7%, 11%, -1%
- C[C@@H]1O[C@@H](OC[C@H]2O[C@@H](Oc3c(-c4ccc(O)cc4)oc4cc(O)cc(O)c4c3=O)[C@H](O)[C@@H](O)[C@@H]2O)[C@H](O)[C@H](O)[C@H]1O
  2%, -3%, -3%
- COc1ccc(OCC(=O)NNC(=O)C2CCN(c3ncnc4sc(C)c(C)c34)CC2)cc1
  4%, -22%, ?
- CC(Oc1ccccc1)C(=O)NC1CCSc2ccccc21 (stereo not drawn)
  5%, 5%, -7%
- CC(=O)Nc1ccc(C(=O)COC(=O)c2nc3nc(C)cc(C)n3n2)cc1
  1%, 5%, -3%
- O=C(c1cccc(S(=O)(=O)Nc2ccc(F)cc2)c1)N1CCCC1
  -3%, -1%, 40%[activator]
- Cc1ccc(C)c(Cn2c(C(=O)O)c(C=O)c3ccccc32)c1
  2%, 11%, -11%
- COC(=O)[C@]1(CC(C)C)N[C@H](c2ccc(SC3CCCCC3)cc2)[C@@H]2C(=O)N(C)C(=O)[C@@H]21
  -16%, 1%, -27%
- Cc1cccc(CCN2C(N(C)C)=NC[C@@H]2C)c1
  -6%, -7%, -4%
- O=[N+]([O-])c1ccc(Sc2n[nH]c(-c3ccncc3)n2)nc1
  -4%, -1%, -16%
- Cc1ccc(C(=O)CN2C(=O)NC3(CCOc4ccccc43)C2=O)s1 (stereo not drawn)
  0%, -12%, 11%
- COc1cccc(/C=C/C(=O)OCC(=O)NCCC2=CCCCC2)c1OC
  -3%, -2%, 6%
- CCN(CC)CCCNC(=O)c1cc2c(Cl)nc3ccccc3c2s1
  -1%, -9%, -22%
- C/C=C(/C)C(=O)OC1CC(C)(C)C[C@H]2C3=CC[C@@H]4[C@@]5(C)CCC(O[C@@H]6O[C@@H](C(=O)O)[C@@H](O)C(O[C@@H]7OC[C@H](O)[C@@H](O)[C@@H]7O[C@@H]7OC(CO)C(O)[C@@H](O)[C@@H]7O)C6O[C@@H]6OC(CO)C(O)C(O)C6O)[C@@](C)(CO)[C@@H]5CC[C@]4(C)[C@]3(C)CC(O)[C@@]12CO (stereo partly drawn)
  -4%, 10%, -2%
- O=C1CN(C(=O)COC(=O)c2ccc(Cl)c(S(=O)(=O)N3CCCCC3)c2)c2ccccc2N1
  -2%, 5%, -25%
- O=C(Nc1ccnc(-c2ccncc2)n1)c1cccs1
  0%, -5%, -13%
- Cc1ccccc1S(=O)(=O)N1[C@@H](c2ccc(Br)cc2)C(C(=O)O)=CC[C@H]1c1ccc(Cl)cc1
  -12%, 7%, -24%
- CC(C)(C)OC(=O)N1CCN(C(=O)c2[nH]cnc2C(=O)Nc2nccs2)CC1
  -19%, 9%, 4%
- COc1ccc(CCNC(=O)CN2C(=O)C(=O)N(C3CCCC3)C2=O)cc1OC
  3%, 7%, -16%
- O=C(NS(=O)(=O)NC1CCCCC1)C1=C(N2CCCC2)COC1=O
  -12%, -5%, 51%[activator]
- CN(CC(=O)Nc1ccccc1C(F)(F)F)C(=O)CSc1nc(N)cc(N)n1
  4%, -10%, -12%
- NC(=O)C1CCCN(C(=O)c2cccc(S(=O)(=O)N3CCCCCC3)c2)C1 (stereo not drawn)
  9%, 1%, -5%
- O=C(COC(=O)c1n[nH]c(=O)c2ccccc12)NCc1ccccc1
  -13%, 105%, -9%
- O=C(NNC(=O)C1CCN(C(=O)Nc2ccccc2)CC1)c1ccc(F)cc1
  -1%, -14%, 3%
- C[C@@H]1O[C@@H](OC[C@H]2O[C@@H](Oc3cc(O)c4c(=O)cc(-c5ccc(O)c(O)c5)oc4c3)[C@H](O)[C@@H](O)[C@@H]2O)[C@H](O)[C@H](O)[C@H]1O
  -4%, 3%, -19%
